Bioassay records as filed in PubChem.
StopGo RLuc: Primary qHTS Assay for Foot and Mouth Disease Virus Antivirals against NCGC Sytravon and CBC Compound Libraries: Renilla Luciferase Signal | Potency, µM (top dose mostly 57.5 µM), for inactives: at the highest dose signal change, negative = less light | AID 1745857, 2022 | HEK cells with a luciferase reporter of 2A StopGo recoding | actives 0.32% (n = 120,000); active means well fitted falling curve with a large enough effect; inconclusive means small, poorly fitted or top-dose-only effect; inactive means no such curve, though single readings can be large or run the other way; note: nearly all actives have a fitted effect of over 55% in size; overnight with compound
2A firefly: Primary qHTS Assay for Foot and Mouth Disease Virus Antivirals against NCGC Sytravon and CBC Compound Libraries: Firefly Luciferase Signal; HEK cells with a luciferase reporter of 2A StopGo recoding; Potency, µM (top dose mostly 57.5 µM), for the others: at the highest dose signal change, negative = less light; actives 0.23% (n = 120,000); AID 1745856, 2022; active = well fitted falling curve with a large enough effect; inconclusive = small, poorly fitted or top-dose-only effect; inactive = no such curve, though single readings can be large or run the other way; note: nearly all actives have a fitted effect of over 60% in size; overnight with compound
Numbers without * were called inactive; u = inconclusive; [ ] = remark or other dose. % is set by controls: 0 for no effect and ±100 for the full control effect; potency is the fitted concentration of half-maximal effect.

smiles,StopGo RLuc,2A firefly
CC(C(=O)NCCO)c1ccc2c(c1)[nH]c1ccc(Cl)cc12 (stereo not given),-13%,53%[activator]
CCN(C(=O)c1ccco1)c1nc(-c2ccccc2)cs1,18%,119%[activator]
CCCCCCC1COC(c2ccc(Br)cc2)OC1 (stereo not given),9%,18%
CC(=O)N1c2ccc(S(=O)(=O)NCC3CCC(C(=O)Nc4ccc(F)cc4)CC3)cc2CC1C (stereo not given),-15%,-12%
O=C(NC1(C(F)(F)F)C(=O)Nc2c1c(=O)[nH]c(=O)n2Cc1ccco1)c1ccccc1 (stereo not given),14%,23%
Cc1cccc(NC(=O)CC(C)(C)CC(=O)O)c1C,3%,10%
COC(=O)C1=C(N)Oc2n[nH]c(-c3ccccc3)c2C12C(=O)N(Cc1ccc(F)cc1)c1ccccc12 (stereo not given),12%,16%
Cn1cnc2c1c(=O)n(CC(=O)NCC1(c3ccccc3)CCCC1)c(=O)n2C,7%,12%
O=C(NCc1cccs1)C1CCN(C(=O)N2CCOc3ccccc32)CC1,5%,21%
Cc1cccc(N2CCN(C(=O)CCCn3ncn4c(cc5occc54)c3=O)CC2)c1C,-6%,-8%
CC(C)C(=O)Nc1cccc(NC(=O)Nc2ccc(Cl)cc2)c1,7%,21%
O=C(c1ccc(C(F)(F)F)cc1)N1CCC(c2noc(-c3ccc(S(=O)(=O)N4CCCC4)cc3)n2)CC1,-15%,-16%
Cc1cc(S(=O)(=O)c2cc3cc(F)ccc3oc2=O)ccc1F,2%,6%
Cn1c(=O)cc(SCC(=O)N2CCN(c3ccccc3F)CC2)c2ccc(Cl)cc21,-11%,-14%
CCCOc1ccc(C[N+](C)(C)C)cc1C[N+](C)(C)C,-9%,-8%
Cc1cc(Br)ccc1NC(=O)Cn1cnc2c1c(=O)n(C)c(=O)n2C,2%,-12%
CCn1c(SCC(=O)c2ccc(Cl)cc2Cl)nnc1-c1cnccn1,10%,16%
N#CCCNc1ccccc1,-4%,-11%
O=C(COc1ccccc1)NC1CC(=O)N(c2ccc3c(c2)OCCO3)C1 (stereo not given),-8%,-9%
Cc1c(Cl)cccc1NC(=O)Cn1c(=O)n(Cc2ccco2)c(=O)c2oc3ccccc3c21,-10%,-25%
COc1cccc2[nH]c(C(=O)NCC3CCCO3)cc12 (stereo not given),8%,74%[activator]
CC(C)c1ccc(C2CC(=O)N3CN(C4CCCCC4)CSC3=C2C#N)cc1 (stereo not given),4%,-15%
CCOC(=O)c1c(C)c(-c2ccccc2)n(CC(=O)NCCc2cccc(C)c2)c1C,-3%,12%
Cc1c(OCC(=O)Nc2ccc(F)c(Cl)c2)c(=O)ccn1C,1%,144%[activator]
COc1ccc(/C=C/c2nn3c(-c4ccccc4OC)nnc3s2)cc1,-3%,29%
COc1cc2ccccc2cc1C(=O)Nc1cccc(-c2nc3cc(C)ccc3o2)c1C,-9%,-4%
CCC(=O)N1CCc2cc(S(=O)(=O)NC(C(=O)NCCc3ccccc3)C(C)C)ccc21 (stereo not given),23%,0%
COc1ccccc1Cc1nnc(NC(=O)c2c(OC)cccc2OC)s1,7%,1%
Cc1cc(C)c(C(N)=O)c(NCc2ccc(Cl)cc2)n1,-2%[1.06 µM],7%
CCN(C(=O)CSc1nc2ccccc2[nH]1)c1ccccc1,18%,11%
CCCNC(=O)COC(=O)c1cc(Cl)c(OC)c(OC)c1,-9%,7%
N=C(N)c1ccc2cc(OC(=O)c3ccc(N=C(N)N)cc3)ccc2c1,-5%,-2%[11.5 µM]
COc1ccc(-c2nnc(SCc3csc(Nc4ccc(C)cc4)n3)o2)c(OC)c1,4%,15%
COc1ccc(CC(=O)NC(CCSC)c2nc3ccccc3[nH]2)cc1 (stereo not given),2%,37%[activator]
Cc1ccc(S(=O)(=O)NCC2CCC(C(=O)N(C)Cc3ccccc3)CC2)cc1 (stereo not given),0%,u
Cc1ccccc1CNC(=O)c1ccc(CN2C(=O)CCn3nccc32)cc1,13%,15%
Oc1ccc(Cl)cc1C=NCc1ccc(F)cc1,7%,3%
CN(C(=O)CSc1cn(CC(=O)N2CCCCCC2)c2ccccc12)c1ccccc1,41%[activator],10%
COCCS(=O)(=O)c1ccc(C(=O)O)cc1,10%,-2%
Cc1ccc(-c2nc(S(=O)(=O)c3ccc(C)cc3)c(N3CCCCC3)o2)cc1,-11%,56%[activator]
O=C(Cn1ccc2ccccc21)Nc1ccc2c(c1)OCO2,99%[activator],11%
Cc1ccc2c(c1)-c1cc(C)nn1C(c1ccsc1)N2 (stereo not given),-10%,39%[activator]
CCOc1cccc(C2Oc3nc(SC)nnc3-c3ccccc3N2C(C)=O)c1OC (stereo not given),-7%,-1%
Cc1nc2ccc(NS(=O)(=O)c3ccc(C)c(C)c3)cc2s1,96%[activator],u
COc1cc(OC)c(NC(=O)c2ccc3c(c2)N(Cc2ccc(C)cc2)CCS3)cc1Cl,1%,-3%
COc1cccc(C(=O)c2cn(CC(=O)Nc3cccc(Cl)c3C)c3nc(C)ccc3c2=O)c1,-3%,-1%
O=C(c1ccccc1)n1nc(-c2ccco2)nc1NCc1ccccc1Cl,-14%,27%
COc1cc(C(=O)NCC2CCCO2)cc(Cl)c1OCC(C)C (stereo not given),29%,1%

Exported field by field: entries from further up.
O=C(c1ccccc1)n1nc(-c2ccco2)nc1NCc1ccccc1Cl
  StopGo RLuc: -14%
  2A firefly: 27%

CCOc1cccc(C2Oc3nc(SC)nnc3-c3ccccc3N2C(C)=O)c1OC (stereo not given)
  StopGo RLuc: -7%
  2A firefly: -1%

COc1cc(C(=O)NCC2CCCO2)cc(Cl)c1OCC(C)C (stereo not given)
  StopGo RLuc: 29%
  2A firefly: 1%

O=C(Cn1ccc2ccccc21)Nc1ccc2c(c1)OCO2
  StopGo RLuc: 99%[activator]
  2A firefly: 11%

Following part:
smiles,StopGo RLuc,2A firefly
O=C(CCN1CCC(c2ccccc2)C1)c1ccco1 (stereo not given),-13%,-4%
COc1ccc(Cl)cc1NC(=O)Nc1ccc2c(c1)oc(=O)n2C,1%,16%
COc1ccc(CCNC(=O)c2ccc(Cn3c(=O)c4ccccc4n(Cc4ccc(C)cc4)c3=O)cc2)cc1OC,-6%,-15%
COc1cc(CNC2CCCC2)ccc1OCc1ccccc1,-3%,19%
COC(=O)c1cc(NC(=O)Cn2ncc3c2-c2ccccc2OC3)cc(C(=O)OC)c1,11%,19%
Cc1ccccc1OC(=O)c1snnc1C,-10%,-10%
Cc1occc1-c1nnc(SC(C(=O)Nc2cccc(C(F)(F)F)c2)c2ccccc2)n1C (stereo not given),139%[activator],3%
CC(C)Cc1nc2oc3c(N(C)CCO)ncnc3c2c2c1CCC2,1%,10%
COc1ccc(C(=O)NCCn2cc(SCc3c(F)cccc3Cl)c3ccccc32)cc1,4%,u
CCCNC(=O)CCC(=O)N1Cc2ccccc2Oc2ncccc21,-12%,-9%
COc1cccc2c1Oc1ncccc1N(C(=O)CCC(=O)NCc1ccc(N(C)C)cc1)C2,-11%,-15%
CCCCN1CCN(C(=O)c2cc(-c3ccncc3)nc3c(C)cccc23)CC1,-5%,-12%
CCCn1nc(C(=O)Nc2ccc(F)c(S(=O)(=O)N3CCOCC3)c2)c2ccccc2c1=O,18%,18%
CCOc1ccc(C(=O)NC2CC(=O)N(c3ccc(C)cc3)C2)cc1OCC (stereo not given),2%,-24%
Cc1ccnc(NS(=O)(=O)c2ccc(NC(=O)c3cc(=O)c4ccccc4o3)cc2)n1,-5%,2%
CCOC(=O)c1c(NC(=O)Cc2coc3cc(C)ccc23)sc2c1CCCC2,-17%,-6%
N#Cc1ccc(OCC(=O)c2ccc3c(c2)OCCO3)cc1,43%[activator],24%
COc1ccc(NC(=O)c2cn(-c3ccccc3)nc2-c2ccc(C)cc2)cc1,1%,37%[activator]
O=c1c(Cl)c(N2CCN(S(=O)(=O)c3ccccc3F)CC2)cnn1Cc1ccccc1,-5%,-25%
N#CC(C(=O)c1cccs1)C(=O)C1CCCCC1 (stereo not given),-14%,-10%
COc1ccc(-c2coc3cc(OC(=O)C(C)(C)C)ccc3c2=O)cc1,-2%,175%[activator]
Cc1cc(C(=O)CN2CCN(CC(=O)Nc3ccccc3Cl)CC2)c(C)n1CCc1cccs1,-9%,-2%
COc1cccc(-c2noc(-c3ccc(Br)cc3)n2)c1,6%,188%[activator]
Cc1ccc(NC(=O)CCC(=O)N2CCSc3ccccc32)cc1Cl,-11%,18%

The listing continues:
Values run as follows: StopGo RLuc	2A firefly
CCCCOc1ccc(C(=O)Nc2cccc(-c3nc4ccccc4o3)c2C)cc1
→ -15%	-15%
COC(=O)c1ccc2c(c1)N(Cc1ccc(Cl)cc1)C(=O)c1ccccc1S2(=O)=O
→ 46%[activator]	0%
COCc1ccccc1CNC(=O)c1ccc(C)s1
→ 22%	0%
NS(=O)(=O)c1ccc(N/N=C/c2ccccc2I)c([N+](=O)[O-])c1
→ -1%	7%
O=C(NCCc1cccc(O)c1)Nc1ccc(F)cc1F
→ 10%	0%
COc1ccc(NC(=O)C2CCCN(S(=O)(=O)c3ccc4[nH]c(=O)ccc4c3)C2)cc1OC (stereo not given)
→ -7%	-10%
CCCNC(=O)C1CCC(Cn2c(=O)c3sccc3n(CC(=O)N3CCC(C)CC3)c2=O)CC1 (stereo not given)
→ -3%	-8%
O=C1C(O)=C(c2ccccc2)C(c2ccccc2)N1Cc1ccccn1 (stereo not given)
→ 35%[activator]	1%
Cc1ccc(Cn2c(CN3CCOCC3)nc3c2c(=O)[nH]c(=O)n3C)cc1
→ 1%	-3%
Cc1ccc(S(=O)(=O)N(CC(=O)Nc2cccnc2)c2cc(Cl)ccc2C)cc1
→ 335%[activator]	0%
CC(=O)Nc1ccc(NC(=O)CCc2ncc(-c3ccccc3)o2)cc1
→ -5%	-8%
COc1ccc2c(C)c(CC(=O)NCc3ccc(C)cc3)c(=O)oc2c1OC
→ 4%	11%
CCNC(=O)N(C)[C@H]1C[C@H]2c3[nH]c4c(-c5cccc(C)c5)cccc4c3CCN2C(=O)[C@H]1[C@H](C)O
→ -10%	-13%
CCCOC(=O)C1=C(C)Nc2nnnn2C1c1ccccc1OCCC (stereo not given)
→ 13%	-14%
CCc1cc(CC)n(-c2nc3c(c(=O)[nH]c(=O)n3C)n2Cc2ccccc2C)n1
→ 22%	41%[activator]
Cc1cccc(CN2C(=O)c3ccccc3S(=O)(=O)c3ccc(C(=O)NCCC4=CCCCC4)cc32)c1
→ 13%	-2%
Cc1ccc(CN2CCN(CC(=O)NC3CCC(C(C)(C)C)CC3)CC2)o1 (stereo not given)
→ -17%	-14%
CCc1nn2c(-c3ccco3)ccnc2c1-c1ccccc1
→ 9%	13%
O=C(Nc1cccc(Cl)c1Cl)c1cc(S(=O)(=O)N2CCCc3ccccc32)ccc1F
→ 7%	-4%
O=C(Nc1ccccc1C(F)(F)F)c1ccccc1
→ -7%	11%
COc1ccc(NC(=O)C2CCCCC2)c2ccccc12
→ 13%	23%
Cc1ccc(CNC(=O)C(C)n2nc(C)c3sc4ccccc4c3c2=O)cc1 (stereo not given)
→ -24%	-16%
COc1cccc2c1cc1c(=O)n(CC(=O)NCc3ccc(N(C)C)cc3)nc(C)n12
→ -9%	-9%
Cc1cccc(-c2nc3ccccc3n2Cc2ccccc2)c1
→ 30%	20%
NC(=O)CSc1oc(-c2cccs2)nc1S(=O)(=O)c1ccc(Br)cc1
→ 78%[activator]	-8%
Cc1ccn2c(Nc3ccccc3C)c(-c3ccc(N4CCOCC4)cc3)nc2c1
→ -7%	3%
CCOc1c(Cl)cc(Cl)cc1CNCc1ccncc1
→ 82%[activator]	3%
Cn1ccnc1C(NC(=O)c1nn(C)c(=O)c2ccccc12)c1cccc(F)c1 (stereo not given)
→ 34%[activator]	21%
CCCCCCNC(=O)C(C#N)c1nc2ccccc2nc1N(CC)CC (stereo not given)
→ -12%	0%
Cc1ccc2c(CC(=O)NCc3ccccc3)coc2c1C
→ 47%[activator]	0%

A second format for some results above:
> CCCNC(=O)C1CCC(Cn2c(=O)c3sccc3n(CC(=O)N3CCC(C)CC3)c2=O)CC1 (stereo not given)
  StopGo RLuc: -3%	2A firefly: -8%

> O=C1C(O)=C(c2ccccc2)C(c2ccccc2)N1Cc1ccccn1 (stereo not given)
  StopGo RLuc: 35%[activator]	2A firefly: 1%

> Cc1ccc(Cn2c(CN3CCOCC3)nc3c2c(=O)[nH]c(=O)n3C)cc1
  StopGo RLuc: 1%	2A firefly: -3%

> Cc1ccc(S(=O)(=O)N(CC(=O)Nc2cccnc2)c2cc(Cl)ccc2C)cc1
  StopGo RLuc: 335%[activator]	2A firefly: 0%

Additional structures follow:
Values run as follows: StopGo RLuc	2A firefly
O=C(NC1CCC(c2ccccc2)CC1)c1ccncc1 (stereo not given)
→ u	u
COc1ccc(OC)c(C(C)NC(=O)CC(C)(C)C)c1 (stereo not given)
→ -1%	1%
Clc1ccc(N=Cc2ccc3ccccc3c2)cc1Cl
→ 4%	22%
CSc1ncc(C(=O)NCc2ccccc2Cl)c(C(F)(F)F)n1
→ 53%[activator]	-10%
CCOC(=O)c1cnn(-c2cc(C)nc3c(-c4ccc(F)cc4)cnn23)c1N
→ -1%	12%
NC(=O)c1ccc(S(=O)(=O)N2CCN(C(=O)c3cc4c(s3)CCCCC4)CC2)cc1
→ -8%	26%
COC(=O)C1CN(Cc2ccc(OC)cc2)CCS(=O)(=O)N1Cc1ccc(C(F)(F)F)cc1 (stereo not given)
→ u	32µM*
CCCNC(=O)Nc1ccccc1CC(N)=O
→ 18%	0%

This is a subset; the hit share may differ from the screen's.
